Screens: PubChem, several laboratories
BJeLR viability – kills HRASV12-expressing BJeLR cells; hit rate 0.17% among 300,000; inhibition, % (test concentration not listed); BJeLR (HRASV12) viability, CellTiter-Glo ATP luminescence, 48 h; reference of the scale not given here;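 active = replicate mean above 50%; inconclusive = above 50% but judged a plate artefact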;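 note: 50 nL library stock added to about 25 µL; numbers are from one replicate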
ugtP null kill – compounds lethal to S. aureus RN4220 ugtP deletion mutant; OD600 growth, 16 h; some inactives read as strong as hits; growth inhibition, % (test concentration not listed); hit rate 0.54% among 330,000; AID 1259309;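 active = z-score under -3 and OD600 up to 0.15 on both plates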;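 note: plate controls were untreated wells for no effect and antibiotic for full effect; wells of about 80 µL received 100 nL stock; the first replicate is given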
Mtb hypoxia rep – reduces hypoxia-regulated biosensor signal in M. tuberculosis | M. tuberculosis hypoxia-regulated fluorescent reporter, fluorescence | fluorescence inhibition, % (test concentration not listed) | hit rate 0.1% among 300,000;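 active = 35 to 45% if threefold the growth effect, above 45% if 1.5-fold the growth effect; inactive = the rest, general growth blockers included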;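 note: wells of about 50 µL received 100 nL stock; 0% = vehicle wells and 100% = reference inhibitor wells; whole bacteria with a GFP reporter of the hypoxia response; strong numbers were not always called active; many hits fall short of the cut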
PrP 5UTR inh – suppresses PrP 5' UTR mRNA reporter expression | cell-based PrP 5' UTR mRNA reporter, plate reader | AID 488862 | inhibition, % (concentration not given with the values) | hit rate 0.35% among 340,000;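 active = every replicate at 50% or more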;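 note: 0 = median of the neutral control wells; tested in H4 reporter cells; numbers are from one replicate; inactives centre near -14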
Bead autofluor – flagged as autofluorescent in microsphere protease counterscreen | compound autofluorescence counterscreen, microsphere flow cytometry; active compounds read high | fluorescence intensity (no concentration beside the values) | hit rate 3.1% among 360,000 | AID 624483;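 active = at least 3 SD above the mean of all compounds, about 16000 in these data; inconclusive = too few beads counted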;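 note: 100 nL of 1 mM stock went into each well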
RN4220 kill – kills Staphylococcus aureus RN4220. S. aureus RN4220 growth, OD600, 16 h. inhibition, % (test concentration not listed). hit rate 0.33% among 330,000. AID 1259311;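 active = z-score of -3 or lower and OD600 up to 0.18 on both plates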;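 note: plate controls were untreated cells for no effect and reference antibiotic for full effect; stock transfer was 100 nL into about 80 µL; one replicate is shown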
Mtb hypoxia rep growth – also measured in Mtb hypoxia rep; calls as there; growth inhibition, %; measured here: M. tuberculosis growth (absorbance);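 0% = vehicle and 100% = reference antibiotic; read after six days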
* hit, by the source's call; ? = inconclusive; / = not tested or not shown.

SMILES	BJeLR viability	ugtP null kill	Mtb hypoxia rep	Mtb hypoxia rep growth	PrP 5UTR inh	Bead autofluor	RN4220 kill
O=C(NC1CC2CCCC(C1)N2Cc1ccccc1)c1cccc(F)c1 (configuration not stated)	-5	10	-2	-3	0	3249	1.9
CSCCNC(=O)c1ccc(OC2CCN(S(=O)(=O)N(C)C)CC2)cc1	-4	2	-2	10	-67	3155	6.8
CC[C@H](C)[C@H](NC(N)=O)C(=O)NCCc1ccc(OC)c(OC)c1	-13	4	7	-4	-11	4141	1.8
CN(Cc1ccccc1)c1ccc(N2C(=O)CCC2=O)cc1[N+](=O)[O-]	3	1	-1	-3	-18	4559	1.7
Cc1csc2ncc(C(=O)N3CCCc4ccccc43)c(=O)n12	1	-1	5	13	-20	5816	-11
COc1ccc(C(OCC(O)CNCCc2ccccc2)c2ccc(OC)cc2)cc1 (configuration not stated)	-1	6	7	3	-14	4275	-5.4
COc1ccccc1-c1csc(-n2ncc(C#N)c2N)n1	0	/	/	/	-12	5253	/
COc1ccc(/C=N/NC(=O)c2cc(=O)[nH]c3ccccc23)cc1OC	1	/	/	/	0	3684	/
Cc1cc(NC(=O)Cn2nc(C(=O)O)c3ccccc3c2=O)c([N+](=O)[O-])cc1C	-20	-18	-14	8	0	3567	1.5
CCCC(=O)c1ccc2c(c1)OCCO2	0	2	/	/	-14	3647	5.8
CC(C)c1nc(SCC(=O)NC(=O)NC(C)(C)C)n[nH]1	-7	0	-10	3	-10	3728	4.0
COc1cccc(NC(=O)CN(C)C(=O)c2ccc(-c3cccc(C(F)(F)F)c3)o2)c1	-9	9	8	-3	-27	5081	7.9
O=C(COc1ccc(Br)cc1)N(Cc1cccs1)C1CCS(=O)(=O)C1 (configuration not stated)	3	10	0	-8	-17	4288	4.8
O=C1CC(N2CCN(Cc3ccccc3)CC2)C(=O)N1CCc1ccccc1 (configuration not stated)	5	6	8	8	/	10431	4.9
C[N+]1([O-])[C@@H]2Cc3cc4c(cc3[C@@H]1Cc1cc3c(cc12)OCO3)OCO4 (some centres not stated)	-8	/	/	/	-17	4434	/
COc1cccc(NC(=O)Cn2c(CCC(=O)O)ccc2-c2ccc(Cl)cc2)c1	-2	5	2	2	-13	4499	14
CC(C)(C)NC(=O)Cn1nnc(-c2cccs2)n1	4	0	/	/	-18	2518	3.0
O=C(O)CCCCCCC1C(=O)NC(=O)N1CCC(O)C1CCCCC1 (configuration not stated)	7	-4	0	-2	-14	5680	1.7
Cn1c(SCc2c(Cl)cccc2Cl)nnc1-c1cccs1	/	-13	15	17	-26	18672*	8.2
CNS(=O)(=O)c1ccc(Oc2ccc(S(=O)(=O)NC)cc2)cc1	/	-6	/	/	2	3477	-2.2
CCn1c(SCC(=O)Nc2cc(OC)ccc2OC)nc2c(c1=O)SCC2	-5	6	10	11	-47	5231	0.5
CC(C)(C)NC(=S)N/N=C/c1c(Cl)cccc1Cl	-7	/	/	/	0	5675	/
CC(=O)Nc1ccc(S(=O)(=O)Nc2cccc(-c3csc(C)n3)c2)cc1	6	16	4	10	-9	3979	5.4
CCOc1ccc(Cc2c(C)[nH]c3ccc(C(=O)O)cc3c2=S)cc1	-6	5	13	7	-66	/	-1.1
N/C(=N\OC(=O)c1cccc(C(F)(F)F)c1)c1cnccn1	-14	7	2	-4	-17	?	1.8
CC(=O)Nc1cc[n+](CC(=O)c2cccc([N+](=O)[O-])c2)cc1	-4	7	-6	2	-6	4159	1.4
CCCc1nc(SCC(=O)N2CCCc3ccccc32)c2c(=O)n(C)c(=O)n(C)c2n1	3	-9	7	5	-7	6095	3.1
COc1cccc(-c2noc(C3CCCN(C(=O)CC(C)(C)C)C3)n2)c1 (configuration not stated)	4	4	14	11	-51	4497	5.0
Cc1ccccc1CNC(=O)COc1ccccc1	-2	5	/	/	-10	3364	7.6
Brc1ccc(NC(c2ccccc2)c2ccncc2)cc1 (configuration not stated)	-16	7	9	1	-20	3456	1.1
Nc1c(Cl)cc(C(=O)NC2CC2)cc1Cl	/	-6	-9	-9	15	2947	-0.9
O=C(O)CCC1OC(=O)C(O)=C1c1ccccc1 (configuration not stated)	0	-10	/	/	-26	5137	5.8
Cc1nnc(NC(=O)c2c(-c3ccccc3Cl)noc2C)s1	9	4	-1	-4	-20	2422	1.4
O=C(Cc1ccccc1)Nc1cccc(NC(=O)c2cccs2)c1	-13	-3	10	8	-11	2698	8.9
COc1ccc(C(=O)NNC(=O)C2CCCO2)cc1 (configuration not stated)	7	6	9	13	-11	5004	2.7
COc1ccc(-c2noc(CN3CCCC(OCc4ccccn4)C3)n2)cc1 (configuration not stated)	0	14	-5	6	-13	4514	5.3
O=C1CCC=CCC(CC(=O)N(CCO)Cc2ccccc2)C(=O)NC(Cc2ccccc2)CO1 (configuration not stated)	/	-1	9	10	/	/	4.6
CCS(=O)(=O)N1CCC(C(=O)NCc2ccc3c(c2)OCO3)CC1	2	12	12	2	-2	7669	-1.0
COC(=O)c1c(C)[nH]c(C=O)c1-c1ccccc1	0	4	12	11	/	4044	2.8
O=C1CN(c2nc(-c3cccs3)nc3sc4c(c23)CCCC4)CCN1	4	-9	-13	1	-17	3501	0.9
O=C(CCN1C(=O)c2ccccc2C1=O)N1CCN(Cc2ccccc2)CC1	-11	4	-2	-7	-3	6672	-1.3
COc1ccc2[nH]c(C)c(CCN3C(=O)C4CC=CCC4C3=O)c2c1 (configuration not stated)	-5	3	/	/	-18	4276	3.3
Cn1c(NN=Cc2cccs2)nc2c1c(=O)n(Cc1ccccc1)c(=O)n2C	/	1	8	7	/	/	-0.1
Cc1ccc(OCCC(=O)OCC(=O)c2c(N)n(CC(C)C)c(=O)n(C)c2=O)cc1	/	3	8	2	89*	2678	3.4
CC(=NNC(=O)c1nnn(-c2nonc2N)c1C)c1ccc(-c2ccccc2)cc1	/	3	3	0	/	/	5.0
Cc1ccc(NC(=O)COC(=O)c2c(-c3ccccc3)noc2C)cc1	/	-7	-1	5	-6	3879	-7.4
CC1CCCCC1NC(=O)NC(=O)COC(=O)c1ccc(OC(F)F)cc1 (configuration not stated)	/	-2	-7	1	-9	4303	-0.4
OCCCNc1ncnc2scc(-c3ccc(Cl)cc3)c12	3	2	5	4	-21	3705	1.5
NC(=O)c1cc([N+](=O)[O-])ccc1NCc1ccccn1	/	-4	7	13	-6	3034	5.4
C[C@H](NC(=O)c1nc[nH]c1C(=O)N1CCN(C(=O)OC(C)(C)C)CC1)C(=O)OCc1ccccc1	7	-6	14	7	-16	3530	-13
O=C(COC(=O)CNC(=O)c1ccc(Br)cc1)Nc1nnc(-c2ccccc2)o1	-11	3	-5	3	3	/	2.0
O=C(NCCN1CCOCC1)c1ccc2c(c1)N(Cc1cccc(F)c1)C(=O)c1ccccc1S2	-2	5	0	10	-10	/	1.4
O=C(CSc1ccsc1[N+](=O)[O-])N1CCN(c2ccccn2)CC1	4	-10	-1	16	-9	2096	-1.8
COc1ccccc1C1CCN(Cc2ccc(Cl)c(Cl)c2)CC1	13	16	8	-1	/	7118	3.0
CCOC(=O)C/C(C)=N\Nc1ccc([N+](=O)[O-])cc1[N+](=O)[O-]	-6	/	/	/	7	2462	/
COc1ccc(CN2CCN(C(=O)c3cccc4ccccc34)CC2)c(OC)c1OC	-20	5	8	10	-19	3357	5.3
CC(C(=O)O)N1CCCCC1 (configuration not stated)	-6	5	12	12	-9	3207	4.1
Cc1ccc(OCC(=O)N/N=C/c2cn(C)c3ccccc23)cc1	11	/	/	/	-31	4314	/
COc1ccc(C(=O)NCC(=O)NN=Cc2c(C)[nH]c3ccccc23)cc1OC	/	-1	1	8	/	/	1.0
CC(C)Cn1c(SCC(=O)N2CCCc3ccccc32)nc2ccccc2c1=O	1	7	9	-1	/	/	-6.2

The list continues.
SMILES	BJeLR viability	ugtP null kill	Mtb hypoxia rep	Mtb hypoxia rep growth	PrP 5UTR inh	Bead autofluor	RN4220 kill
CS(=O)(=O)c1ccc(-c2nnc(NC(=O)C3=COCCO3)o2)cc1	0	4	10	0	-21	5842	1.9
CC1(C)CC(NC(=O)COc2ccc3c4c(c(=O)oc3c2)CCCC4)CC(C)(C)N1	-2	1	4	2	-16	5362	-0.2
C/C(O)=c1/c(=O)nc2cccc3c2=c1c1ccccc1c3=O	-6	3	2	6	-2	3034	3.4
O=S(=O)(c1cccc(F)c1)N1CCN(C(=S)NCc2ccccc2)CC1	23	6	13	-2	-22	3834	18
Cn1c(SCC(=O)NCC2CCCO2)nnc1-c1c[nH]c2ccccc12 (configuration not stated)	4	5	-2	-1	-1	6008	5.1
COc1ccc(-n2ncc3c2CC(C)(C)CC3NC(=O)CCC2=NNC(=O)CC2)cc1 (configuration not stated)	5	-1	-2	8	-3	5582	-0.5
O=[N+]([O-])c1ccc(NCCCNS(=O)(=O)c2ccccc2)c(Cl)c1	-2	-7	10	3	6	2645	8.7
CCOc1ccccc1C(=O)N(C)Cc1cc2cc(OC)ccc2[nH]c1=O	-6	4	11	12	-1	3438	6.6
CC(=O)Nc1c(C(=O)O)ccc(C)c1OCc1ccccc1	/	0	3	2	-18	4038	1.8
CSc1nsc(SC)c1C(=O)NC(=O)Nc1cccnc1	-12	11	5	10	11	3285	6.0
COc1cc(/C=C2\CCc3c2nc2ccccc2c3C(=O)O)cc(OC)c1OC	4	3	1	2	-19	4239	16
CCOC(=O)C1CCN(Cc2ccc(Cl)nc2)CC1	9	3	-4	-7	/	3108	2.2
O=C(CN1C(=O)NC(Cc2c[nH]c3ccccc23)C1=O)Nc1ccc(Br)cc1F (configuration not stated)	/	-6	1	-2	-14	8850	2.1
COc1ccccc1OCC(=O)c1[nH]c(C)c(C(C)=O)c1C	9	-8	10	10	-15	4338	2.9
Cc1cc(C)c(S(=O)(=O)N2CCCC2=O)c(C)c1	-8	2	3	0	-25	4631	8.4
Cc1ccc(C(C)(C)C)cc1S(=O)(=O)N1CCC(C(=O)N2CCN(c3ccc(O)cc3)CC2)CC1	/	0	2	-2	-1	2858	6.0
CN(C)c1ccc(C(=S)N2CCCCCC2)cc1	7	4	-3	-5	-18	/	4.5
Cc1cc(O)c(C(C)C)cc1NC(=O)Cn1nc(C)c2ccccc2c1=O	-1	-4	-7	-20	-9	/	-3.4
CC(C)=C1SC(N2CCN(c3ccc(Cl)cc3)CC2)=NC1=O	-1	-3	7	4	-23	4033	5.7
N#Cc1cccc(S(=O)(=O)NCC(=O)OCC(=O)c2ccc[nH]2)c1	-5	0	-2	1	-9	5533	3.7
Cc1cc(C)n(CCNCc2c(C(=O)N3C[C@@H](C)O[C@@H](C)C3)nc3ccc(Cl)cn23)n1	5	6	5	8	-40	2157	3.8
O=C(NCc1cccc(Cl)c1)C1CCC(=O)N(CCCN2CCOCC2)C1 (configuration not stated)	-8	16	-2	-5	1	4495	7.3
Cc1ccc(S(=O)(=O)N2CCC(C(=O)OC(C)C(=O)N3CCOCC3)CC2)cc1 (configuration not stated)	-16	3	0	-5	-28	/	2.8
CC(/C=C/c1ccccc1)=NNC(=O)CCc1ccccc1	/	-1	3	-12	/	/	3.4
CCOc1ccccc1NC(=O)NC1CCCc2ccccc21 (configuration not stated)	1	1	6	2	-19	4718	12
